Assay outcomes as filed in PubChem.
Vaccinia stage = blocks a specific stage of Vaccinia orthopoxvirus infection. Vaccinia-infected cells, mCherry/Venus stage reporter fluorescence; stronger effect = lower value; some inactives read as strong as hits. activity change (mCherry), % (test concentration not listed). 0.01% of 89,000 active. AID 1053133;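 active means mCherry past -33% and 40 or more points under the early reporter, replicates agreeing; inconclusive means past -33% without that gap or agreement; tested in A549 cells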;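 further: scaled between vehicle wells and reference inhibitor wells; 23 nL library stock went into each well; one replicate is shown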
Vaccinia stage Venus = further read-out of Vaccinia stage, marked with its call; activity change (Venus), %; measured here: Venus reporter, other viral stage;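 negative = less Venus signal; first of two replicates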
The depositor's hits bear a star; ? = inconclusive; nt = not tested or not shown; & = joins results of further samples. A portion of the library. The share of hits here may be higher or lower than overall.

SMILES | Vaccinia stage | Vaccinia stage Venus
CN1CCCCN2[C@@H](CO)[C@H](c3ccc(C#CC4(O)CCCC4)cc3)[C@@H]2C1 | 23.0 | 9.1
C[C@H](CO)N1C[C@H](C)[C@@H](CN(C)Cc2ccc(C(=O)Nc3ccccc3N)cc2)Oc2ccc(NS(=O)(=O)c3ccc(Cl)cc3)cc2CC1=O | 8.6 | 0.5
COCC(=O)N1CCCCN2[C@@H](CO)[C@@H](c3ccc(C#Cc4ccccc4)cc3)[C@@H]2C1 | -34.0 | -32.7
C[C@@H]1CCCCO[C@@H](CN(C)S(=O)(=O)c2ccc(Cl)cc2)[C@@H](C)CN([C@H](C)CO)C(=O)c2cc(NS(C)(=O)=O)ccc2O1 | 8.8 | 2.1
COc1ccc(S(=O)(=O)N(C)C[C@@H]2OCCCC[C@H](C)Oc3ccc(NC(=O)Nc4cccc5ccccc45)cc3C(=O)N([C@H](C)CO)C[C@@H]2C)cc1 | 5.1 | 0.2
O=C1CN(S(=O)(=O)Cc2ccccc2)C[C@@H]2[C@H](c3ccc(C#Cc4ccccc4)cc3)[C@H](CO)N12 | ? | nt
COc1cccc(C#Cc2cnc3c(c2)C(=O)N([C@@H](C)CO)C[C@@H](C)[C@@H](CN(C)C(=O)C2CCC2)O3)c1 | -16.5 | -15.7
C[C@H](CO)N1C[C@H](C)[C@@H](CN(C)Cc2ccccc2)OCCCC[C@H](C)Oc2ccc(N(C)C)cc2C1=O | 17.7 | -0.2
O=C(C[C@H]1CC[C@@H]2[C@H](COC[C@@H](O)CN2C(=O)c2cnccn2)O1)NCc1ccc(Oc2ccccc2)cc1 | -13.5 | -17.4
O=C(NCC1CCCCC1)[C@H]1[C@H](CO)[C@H]2Cn3c(cccc3=O)[C@H]2N1C(=O)CC1CC1 | 1.9 | 2.6
CS(=O)(=O)Nc1ccc2c(c1)[C@@H]1C[C@H](CC(=O)NCc3ccc(Oc4ccccc4)cc3)O[C@@H](CO)[C@@H]1O2 | ? | nt
C[C@H]1CN([C@@H](C)CO)C(=O)c2cc(N(C)C)ccc2O[C@@H]1CN(C)S(=O)(=O)c1ccc(F)cc1 | 0.5 | -5.9
C[C@@H]1CN([C@H](C)CO)C(=O)c2cc(-c3cccc(F)c3)cnc2O[C@H]1CN(C)C(=O)C1CCC1 | 3.9 | 3.6
C[C@@H]1CCCCO[C@H](CN(C)S(C)(=O)=O)[C@H](C)CN([C@@H](C)CO)C(=O)c2cc(NC(=O)Nc3ccccc3)ccc2O1 | 17.9 | 9.8
CO[C@@H]1CN(C)C(=O)c2ccc(NC(=O)C3CC3)cc2OC[C@@H](C)N(C)C[C@H]1C | 6.6 | 1.9
C[C@H](CO)N1C[C@H](C)[C@@H](CN(C)C(=O)Nc2ccc3c(c2)OCO3)Oc2c(NS(=O)(=O)c3cn(C)cn3)cccc2C1=O | 17.1 | 12.3
C[C@@H]1CN([C@H](C)CO)C(=O)c2cc(-c3cccc(C#N)c3)cnc2O[C@@H]1CN(C)C(=O)C1CCOCC1 | 13.4 | 9.1
C[C@H](CO)N1C[C@H](C)[C@@H](CN(C)Cc2ccccc2C(F)(F)F)OCc2cn(nn2)CCCC1=O | -3.0 | -5.6
CC(C)NC(=O)N(C)C[C@H]1OCCCC[C@@H](C)Oc2ccc(NS(=O)(=O)c3ccc(F)cc3)cc2C(=O)N([C@@H](C)CO)C[C@H]1C | 17.0 | 16.7
C/C=C/c1ccc2c(c1)[C@@H]1[C@@H](CCN1C(=O)c1cnccn1)[C@H](CO)N2 | 3.6 | 8.5
C[C@@H]1CN([C@@H](C)CO)S(=O)(=O)c2ccc(-c3ccc(C(=O)N(C)C)cc3)cc2O[C@@H]1CN(C)C | 9.7 | 7.9
O=C(Cc1ccccn1)N[C@H]1CC[C@@H](CCn2cc(-c3ccccc3)nn2)O[C@@H]1CO | -1.0 | 3.1
CC=Cc1ccc2n(c1=O)C[C@@H]1[C@@H](CO)[C@H](C(=O)NCC3CC3)N(Cc3ccccn3)[C@H]21 (mixture of isomers) | 4.5 | 25.2
C[C@@H]1CN([C@H](C)CO)S(=O)(=O)c2ccc(Br)cc2O[C@H]1CN(C)C(=O)C1CC1 | 17.9&-0.9 | 9.8&-4.5
C/C=C/c1ccc([C@@H]2[C@@H](CO)N(C(=O)c3cnccn3)C23CN(C(=O)CC)C3)cc1 | -2.5 | 2.3

(list continues)
SMILES | Vaccinia stage | Vaccinia stage Venus
C/C=C/c1cnc2c(c1)C(=O)N([C@@H](C)CO)C[C@H](C)[C@H](CN(C)S(=O)(=O)c1ccccc1F)O2 | -0.5 | 5.0
CCCN1[C@@H]2c3ccc(-c4ccccc4F)c(=O)n3C[C@H]1[C@H](CO)[C@H]2C(=O)NCc1ccccn1 | -4.2 | -7.6
CC(C)NC(=O)Nc1ccc2c(c1)C(=O)N([C@@H](C)CO)C[C@H](C)[C@H](CN(C)C(=O)Nc1ccccc1)OCCCC[C@@H](C)O2 | 10.8 | -1.6
O=C(C[C@H]1CC[C@H](NC(=O)Nc2ccc(C(F)(F)F)cc2)[C@@H](CO)O1)NCCN1CCCC1 | -7.0 | -10.4
COCC(=O)N1C[C@H](C)[C@H](OC)CN(C)C(=O)c2cc(NC(=O)Nc3ccccc3)ccc2OC[C@@H]1C | 3.4 | -4.2
O=C(C[C@H]1CC[C@H](NC(=O)Nc2ccccc2F)[C@@H](CO)O1)NCc1ccccc1 | -0.9 | 1.7
CN(C)CCCNC(=O)C[C@@H]1CC[C@@H]2[C@@H](COc3ccc(NC(=O)c4cccc(F)c4)cc3C(=O)N2C)O1 | 16.1 | 19.3
O=C([C@H]1[C@H](CO)[C@H]2Cn3c(ccc(C4=CCCCC4)c3=O)[C@H]2N1Cc1nccs1)N1CCCCC1 | -8.9 | -5.5
COc1ccccc1NC(=O)N1CCCCN2[C@@H](CO)[C@H](c3ccc(C#CC4CC4)cc3)[C@@H]2C1 | ? | nt
COc1ccc(-c2ccccc2[C@H]2[C@@H](C#N)N(C(=O)C3CC3)[C@H]2CO)cc1 | 14.2 | 9.3
O=C(C[C@H]1C[C@H]2c3cc(NC(=O)NC4CCCC4)ccc3O[C@H]2[C@@H](CO)O1)NCc1ccncc1 | 6.1 | 4.5
Cc1noc(C)c1S(=O)(=O)N(C)C[C@H]1Oc2ccc(NC(=O)Nc3cccc4ccccc34)cc2CC(=O)N([C@H](C)CO)C[C@@H]1C | 1.3 | 14.1
COc1cccc(S(=O)(=O)N(C)C[C@@H]2Oc3ncc(/C=C/c4ccccc4)cc3C(=O)N([C@H](C)CO)C[C@@H]2C)c1 | ? | nt
C[C@@H]1CCCCO[C@H](CN(C)Cc2ccncc2)[C@H](C)CN([C@@H](C)CO)C(=O)c2cc(NS(=O)(=O)c3cn(C)cn3)ccc2O1 | 20.8 | 16.5
CCCC#Cc1cnc2c(c1)C(=O)N([C@@H](C)CO)C[C@H](C)[C@H](CN(C)C(=O)c1ccc(F)cc1)O2 | 6.7 | 0.2
O=C(C[C@@H]1C[C@H]2c3cc(NC(=O)c4ccc5c(c4)OCO5)ccc3O[C@H]2[C@H](CO)O1)NCc1ccc(Oc2ccccc2)cc1 | ? | nt
COCC(=O)Nc1ccc2c(c1)C(=O)N(C)C[C@@H](OC)[C@H](C)CN(Cc1cc(F)ccc1F)[C@H](C)CO2 | 10.9 | 15.8
CCC(=O)Nc1ccc2c(c1)C(=O)N(C)[C@@H]1CC[C@H](CC(=O)NCCCN(C)C)O[C@H]1CO2 | -2.9 | -6.2
C[C@@H]1CN([C@@H](C)CO)S(=O)(=O)c2ccc(C3=CCCCC3)cc2O[C@H]1CN(C)C(=O)Nc1ccc2c(c1)OCO2 | ? | nt
CO[C@@H]1CN(C)C(=O)c2ccc(NC(=O)C3CCC3)cc2OC[C@@H](C)N(C)C[C@@H]1C | 5.6 | -1.7
N#C[C@@H]1[C@H](c2ccc(C3=CCCCC3)cc2)[C@H](CO)N1C(=O)CN1CCOCC1 | -21.9 | -17.5
O=C(C1CCOCC1)N1C[C@@H]2[C@H](c3ccccc31)[C@@H](CO)N2C(=O)Nc1ccccc1F | 17.1 | 20.1
COc1cccc(C(=O)Nc2ccc3c(c2)C(=O)N(C)C[C@H](OC)[C@H](C)CN(CC2CC2)[C@@H](C)CO3)c1 | 0.0 | -3.9
CC(C)CC#Cc1cnc2c(c1)C(=O)N([C@H](C)CO)C[C@@H](C)[C@@H](CN(C)C(=O)Nc1ccccc1F)O2 | -1.6 | -7.9
O=C(Cc1ccccc1)N[C@@H]1CC[C@H](CC(=O)N2CCCCC2)O[C@@H]1CO | 7.7 | 4.6

The list goes on:
SMILES | Vaccinia stage | Vaccinia stage Venus
COC(=O)C[C@H]1C[C@@H]2c3cc(NC(=O)CN(C)C)ccc3O[C@@H]2[C@@H](CO)O1 | 10.6 | 8.5
N#Cc1cccc(-c2ccc(C3[C@H]4CNC[C@@H]3N4C(=O)Nc3ccc(Cl)cc3)cc2)c1 (some centres undefined) | 6.3&-11.4 | -5.2&-8.0
C[C@@H]1CN([C@H](C)CO)C(=O)c2cc(NS(=O)(=O)c3ccc(F)cc3)ccc2O[C@@H](C)CCCCO[C@H]1CN(C)Cc1ccccc1 | ? | nt
CNC[C@@H]1Oc2c(NC(=O)C3CCCCC3)cccc2C(=O)N([C@H](C)CO)C[C@H]1C | 13.9 | 7.0
N#C[C@H]1N[C@H](CO)[C@@H]1c1ccc(-c2ccccc2F)cc1 | -20.1 | -12.9
Cc1ccc(S(=O)(=O)NCC[C@@H]2CC[C@@H](NC(=O)CC3CC3)[C@H](CO)O2)cc1 | 8.2 | 5.8
C[C@H](CO)N1C[C@H](C)[C@H](CN(C)C)Oc2cc(C#CC3CCCC3)ccc2S1(=O)=O | -24.2 | -18.8
CCN1[C@@H]2c3ccc(-c4ccncc4)c(=O)n3C[C@@H]2[C@@H](CO)[C@@H]1C(=O)NCCc1cn(C)cn1 | 1.2 | 13.8
CC(C)CC#Cc1cnc2c(c1)C(=O)N([C@@H](C)CO)C[C@H](C)[C@@H](CN(C)C(=O)c1ccccc1)O2 | 0.0 | -5.1
O=C(C[C@@H]1CC[C@H]2[C@@H](COC[C@@H](O)CN2Cc2cc(F)cc(F)c2)O1)Nc1nccs1 | 0.0 | -1.3
CNC(=O)C[C@H]1CC[C@@H]2[C@@H](COc3ccc(NC(=O)Nc4ccc(Cl)cc4)cc3C(=O)N2C)O1 | -12.5 | -8.0
C[C@@H]1CN([C@H](C)CO)S(=O)(=O)c2ccc(C3=CCCCC3)cc2O[C@H]1CN(C)Cc1ccccn1 | -18.8 | -26.0
N#C[C@@H]1[C@@H](c2ccccc2-c2ccc(F)cc2)[C@@H](CO)N1c1ncc(-c2ccccc2)s1 | 6.0 | 9.4
C/C=C/c1cnc2c(c1)C(=O)N([C@@H](C)CO)C[C@@H](C)[C@@H](CN(C)C(=O)Nc1ccc(F)cc1)O2 | -11.9 | -20.7
CCCNC(=O)N1[C@H](C#N)[C@@H](c2ccc(C#Cc3cccc(F)c3)cc2)[C@@H]1CO | -12.8 | -8.4
CN1c2ccc(-c3cccc(F)c3)cc2[C@H]2[C@H](CCN2C(=O)c2cccc(F)c2)[C@@H]1CO | -12.4 | -10.1
O=C(Nc1ccc(F)cc1)N1C[C@@H]2[C@H](c3ccccc31)[C@H](CO)N2C(=O)c1ccccc1F | -10.0 | 2.4
CC(=O)N1[C@H](CO)[C@H](c2ccc(-c3ccc(C#N)cc3)cc2)C12CN(C(=O)C1CC1)C2 | -1.5 | 2.6
C[C@H]1CN([C@@H](C)CO)C(=O)c2cc(NC(=O)Nc3ccccc3)ccc2O[C@H]1CN(C)S(=O)(=O)c1cccs1 | -9.2 | -11.3
OC[C@H]1[C@@H](c2ccc(C#Cc3ccccc3F)cc2)[C@H]2CN(Cc3cncnc3)CCCCN21 | ? | nt
CCS(=O)(=O)Nc1ccc2c(c1)C(=O)N(C)C[C@@H](OC)[C@@H](C)CN(C(=O)CN(C)C)[C@@H](C)CO2 | -4.8 | -0.5
C[C@H](NC(=O)C[C@H]1C=C[C@H](NC(=O)C2CCC2)[C@H](CO)O1)c1ccccc1 | 4.4 | 6.9
COc1cccc(-c2ccccc2[C@@H]2[C@H](C#N)N(C(=O)c3ccccn3)[C@H]2CO)c1 | 9.8 | 0.4
CCCNC(=O)N1[C@H](CO)[C@H](c2ccccc2-c2ccc(F)cc2)[C@@H]1C#N | -17.9 | -11.2
CC(C)CC#Cc1cnc2c(c1)C(=O)N([C@@H](C)CO)C[C@H](C)[C@@H](CN(C)C(=O)C1CCCCC1)O2 | -4.9 | -8.2
CC(C)NC(=O)N(C)C[C@@H]1Oc2cc(-c3ccccc3F)ccc2S(=O)(=O)N([C@@H](C)CO)C[C@@H]1C | -16.2 | -10.0
CN(C)CCCNC(=O)C[C@H]1CC[C@@H](NC(=O)Cc2cccnc2)[C@H](CO)O1 | 3.7 | 5.6
CN(C)C(=O)C[C@H]1C[C@H]2c3cc(NC(=O)c4cccnc4)ccc3O[C@H]2[C@@H](CO)O1 | 1.5 | 8.4
C[C@@H]1CCCCO[C@@H](CN(C)C)[C@H](C)CN([C@H](C)CO)C(=O)c2cc(N(C)C)ccc2O1 | 10.1 | 3.0

In the list so far, these contain a CF3 group:
SMILES | Vaccinia stage | Vaccinia stage Venus
C[C@H](CO)N1C[C@H](C)[C@@H](CN(C)Cc2ccccc2C(F)(F)F)OCc2cn(nn2)CCCC1=O | -3.0 | -5.6
O=C(C[C@H]1CC[C@H](NC(=O)Nc2ccc(C(F)(F)F)cc2)[C@@H](CO)O1)NCCN1CCCC1 | -7.0 | -10.4

Reprinted at random: 4 records from the list.
SMILES | Vaccinia stage | Vaccinia stage Venus
C/C=C/c1cnc2c(c1)C(=O)N([C@@H](C)CO)C[C@@H](C)[C@@H](CN(C)C(=O)Nc1ccc(F)cc1)O2 | -11.9 | -20.7
CC(C)CC#Cc1cnc2c(c1)C(=O)N([C@@H](C)CO)C[C@H](C)[C@@H](CN(C)C(=O)c1ccccc1)O2 | 0.0 | -5.1
CN(C)CCCNC(=O)C[C@H]1CC[C@@H](NC(=O)Cc2cccnc2)[C@H](CO)O1 | 3.7 | 5.6
OC[C@H]1[C@@H](c2ccc(C#Cc3ccccc3F)cc2)[C@H]2CN(Cc3cncnc3)CCCCN21 | ? | nt
